# From PubChem
# Mtb bLac sens: beta-lactam sensitization of Mtb H37Rv. M. tuberculosis H37Rv growth with meropenem, percent inhibition; hits of this screen are not shown here. inhibition, % at 25 µM. 0.27% of 330,000 active;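 active means about 74% or more and at least 40 points above the plate without the antibiotic, then above 30% in a dose series; inconclusive means first-round hits that could not be retested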;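 further: growth measured after seven days incubation then overnight dye step; 0% = bacteria only wells and 100% = bacteria with antibiotic; twin plates without the antibiotic show which effects depend on it; some results filed as inactive read as strong as hits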
# * marks the source's active call; other numbers are inactive results; ? = inconclusive. These rows are one share of the data; rates above refer to the full screens.
SMILES,Mtb bLac sens
CCCCn1c(N)c(N(CCOC)C(=O)c2ccc3c(c2)C(=O)N(c2ccccc2Cl)C3=O)c(=O)[nH]c1=O,-8
CCCCCCCC/C=C\CCCCCCCC(=O)NCCO,1
O=C(COC(=O)c1c[nH]c2ccccc12)Nc1cccc(F)c1,-1
COCCCn1c(C)cc(C(=O)CN2c3cccc4cccc(c34)S2(=O)=O)c1C,-9
C[C@@H](NC(=O)c1nc[nH]c1C(=O)N[C@H](C)c1ccccc1)c1ccccc1,15
COc1ccc(C(CNC(=O)c2cc(S(=O)(=O)N3CCN(c4ccccc4)CC3)ccc2Cl)N(C)C)cc1 (stereo not drawn),3
O=S(=O)(NCCCCCNS(=O)(=O)c1c(F)cccc1F)c1ccc2c(c1)OCCO2,1
COC(=O)C1=C(c2ccc(-c3ccccc3)c(F)c2)C[C@@H]2CC[C@H]1N2C(=O)N1CCOCC1,4
Cc1ccc(-n2nc(C)c(C(=O)Nc3cccc(C(=O)NC4CC4)c3)n2)c(C)c1,30
O=C(c1cc2ccccc2o1)N1CCN(S(=O)(=O)c2c(F)cccc2F)CC1,-8
CC(Sc1nnc(N)s1)C(=O)NNC(=O)c1cccc(Cl)c1 (stereo not drawn),-3
O=C(Cn1c(NCCCO)nc2ccccc21)c1ccc(F)cc1,-22
CC(C)C[C@H]1CN=C(N(C)C)N1CC(C)C,-9
C[N+]1(C)C2CCC1CC(OC(=O)c1c[nH]c3ccccc13)C2 (stereo not drawn),0
CC1CC(C)CN(S(=O)(=O)c2ccc(C(=O)NNC(=O)c3ccccc3F)cc2)C1 (stereo not drawn),0
CC(C)(CNC(=O)CNC(=O)c1ccccc1F)N1CCOCC1,-8
CN(CC(=O)Nc1ccc(F)cc1)C(=O)CSc1nnc(Cc2ccccc2)o1,-9
O=C(COC(=O)/C=C/c1ccc([N+](=O)[O-])cc1)Nc1ccc(F)cc1,67
O=C1C=C(c2cccc(Cl)c2O)C[C@@H](c2ccc(Cl)cc2)C1,-3
COc1cc([N+](=O)[O-])ccc1NC(=O)COC(=O)c1c[nH]c(=O)[nH]c1=O,-1
CCS(=O)c1ccccc1C(=O)OCC(=O)N1CCC(c2ccccc2)=N1 (stereo not drawn),-3
COc1ccc([C@]2(C(C)C)ON(c3ccccc3C(F)(F)F)C2=O)cc1,0
COc1ccc(CNC(=O)c2cc3ccccc3o2)cc1OC,4
CCC(C)c1ccc(S(=O)(=O)N2CCN(CC(O)CN3CCOCC3)CC2)cc1 (stereo not drawn),-18
O=C(COC(=O)c1ccccc1O)NCc1ccccc1Cl,-3

# Rewritten field by field: entries from further up
> CC(Sc1nnc(N)s1)C(=O)NNC(=O)c1cccc(Cl)c1 (stereo not drawn)
  Mtb bLac sens = -3
> O=C(Cn1c(NCCCO)nc2ccccc21)c1ccc(F)cc1
  Mtb bLac sens = -22
> CC(C)C[C@H]1CN=C(N(C)C)N1CC(C)C
  Mtb bLac sens = -9
> C[N+]1(C)C2CCC1CC(OC(=O)c1c[nH]c3ccccc13)C2 (stereo not drawn)
  Mtb bLac sens = 0

# Next part
SMILES,Mtb bLac sens
O=C(CN1CCC(C(=O)c2ccc(F)cc2)CC1)Nc1ccccc1Cl,-3
Cc1noc(NS(=O)(=O)c2ccc(NC(=O)c3cc4ccccc4o3)cc2)c1C,9
CC(OC(=O)c1ccc(Cl)cc1O)C(=O)NCCC1=CCCCC1 (stereo not drawn),4
O=C1C=C(c2cccc(Br)c2)C[C@@H](c2ccc(Cl)cc2)C1,11
CC(=O)c1cccc(NC(=O)C2CC(=O)N(C3CCCC3)C2)c1 (stereo not drawn),7
Cc1[nH][nH]c(=O)c1C,-6
Cc1cnc(C(=O)OCC(=O)N2CCC(C)CC2)cn1,-5
O=C(O)C(C(=O)Oc1ccccc1)C(C(=O)O)C(=O)Oc1ccccc1 (stereo not drawn),-5
Cc1ccccc1C(=O)Nc1ccc(C(=O)N/N=C/c2ccccn2)cc1,1
COc1ccc([C@H]2CC(=O)C=C(c3ccnc4ccc(Cl)cc34)C2)cc1,46
COc1cc(C(=O)OCC(=O)N2CCCC2)cc2c1OCCO2,7
COc1ccccc1C1=CN(Cc2ccccc2)CCC1=O,-8
COc1ccc2nc(NC(=O)c3cccc(N4C(=O)CCC4=O)c3)sc2c1,-2
N/C(=N\OC(=O)CC1CCCCC1)c1ccc(Cl)cc1,?
COc1ccc(C(C)(C)C)cc1NC(=O)C1CC(=O)N(C2CCCC2)C1 (stereo not drawn),5
Cc1ccc(S(=O)(=O)NC(C)C(=O)N2CCOCCOCCOCCOCC2)cc1 (stereo not drawn),-11
O=C(COC(=O)C1CC2CCCC(C1)C2=O)NC1CCCCC1 (stereo not drawn),0
CC(C)(C)C(CCl)C(=O)NN=C(c1ccccc1)c1ccccc1 (stereo not drawn),-1
c1ccc(NC2=NCCN2CC2CCC2)cc1,4
COC(=O)c1[nH]c2cc(OC)c(OC)cc2c1NC(=O)CN1C[C@H]2C[C@@H](C1)c1cccc(=O)n1C2,-1
CCCNC(=O)C(CC)NC(=O)c1ccc(C#N)cc1 (stereo not drawn),5
CN(C)CCOC(=O)COc1ccc(Cl)cc1,-6
CC(=O)Nc1ccc2c(COC(=O)[C@@H](NS(=O)(=O)c3ccc(C)cc3)C(C)C)cc(=O)oc2c1,-6
CC1(C2CC2)NC(=O)N(CC(=O)Nc2ccc(SC(F)F)cc2)C1=O (stereo not drawn),-2
COCCN(C(=O)CSCC(=O)Nc1ccc(C)cc1)c1c(N)n(CC(C)C)c(=O)[nH]c1=O,-2

# Later entries
SMILES,Mtb bLac sens
COC(=O)c1ccc(OCC(=O)Nc2ccccc2C(=O)NC2CC2)cc1,-4
O=C1N[C@H](Cc2ccccc2)COC(=O)[C@H](Cc2ccc(F)cc2)C/C=C\C[C@@H]1CC(=O)N(CCO)Cc1ccccc1,14
C=CC(=O)Nc1cccc(Oc2ncnc3[nH]cc(-c4cnc5ccccc5c4)c23)c1,9
Cc1ccccc1C(=O)N1CCC(C(=O)OCc2ccccn2)CC1,6
Cc1ccc(C2c3[nH]c4ccccc4c3C[C@H]3C(=O)N(c4ccccc4C(=O)NCCN4CCOCC4)C(=O)N23)cc1 (stereo partly drawn),-3
CCc1ccc(CN(C)C(=O)c2cc(=O)c3ccccc3o2)cc1,1
Cc1cc(Br)ccc1NC(=O)CN(C)C(=O)C1CSC2(C)CCC(=O)N12 (stereo not drawn),-7
CC(=O)OC1C=CC2[C@H]3Cc4ccc(O)c5c4[C@@]2(CCN3C)C1O5 (stereo partly drawn),-3
Cc1nn(Cc2noc(C(=O)NCc3ccc4c(c3)OCO4)n2)c(C)c1Br,-5
COc1cc(NC(=O)c2cc(OC)c(OC)c(OC)c2)cc(-n2cnnn2)c1,-10
CCCCn1c(N)c(N(CCOC)C(=O)CN2C(=O)C3CCCCC3C2=O)c(=O)[nH]c1=O (stereo not drawn),-11
CCCCc1ccc(CC(=O)Nc2cc(S(=O)(=O)N3CCOCC3)ccc2O)cc1,0
COc1ccc2c(c1OC)C(=O)N1C2SC(C)(C)[C@H]1C(=O)NC1CCCC1 (stereo partly drawn),-4
COc1ccc(NC(=O)COC(=O)c2ccc3ccccc3n2)c(OC)c1,17
COCCN(C(=O)c1cc(Cl)nc2ccccc12)c1c(N)n(Cc2ccccc2)c(=O)[nH]c1=O,-1
COc1cccc(NC(=O)CN(C)C(=O)c2cc(-c3ccc(C)o3)nc3ccccc23)c1,3
CCOc1cccc(N)c1,28
Cc1[nH]c2ccc(C(=O)N3CCC(C(N)=O)CC3)cc2c1C,3
COC(=O)C1=C(c2ccc(OC)c(OC)c2)C[C@@H]2CC[C@H]1N2C(=O)NCCO,3
O=C(NCC(=O)N1CCN(S(=O)(=O)c2ccc3c(c2)OCCO3)CC1)c1ccccc1Cl,4
CCc1nc2ccccc2c(C(=O)OCC(=O)N(C)Cc2ccccc2)c1C,4
N#Cc1ccc(C(=O)OCC(=O)N2CCN(C(=O)c3ccco3)CC2)cc1,1
CC(C)[C@H](NC(=O)c1ccc(F)cc1)C(=O)N(C)Cc1cccs1,-1
Cc1cccc(C)c1NC(=O)CNC(=O)c1cnccn1,-3
CN(C)S(=O)(=O)c1ccc(Cl)c(C(=O)OCC(=O)NC(=O)NC2CCCC2)c1,-1

# Gathered by group: the entries above containing an aryl thioether with sulfur outside any ring
SMILES,Mtb bLac sens
CC(Sc1nnc(N)s1)C(=O)NNC(=O)c1cccc(Cl)c1 (stereo not drawn),-3
CN(CC(=O)Nc1ccc(F)cc1)C(=O)CSc1nnc(Cc2ccccc2)o1,-9
CC1(C2CC2)NC(=O)N(CC(=O)Nc2ccc(SC(F)F)cc2)C1=O (stereo not drawn),-2

# (list continues)
SMILES,Mtb bLac sens
CC(C)(C)NC(=O)CN1CCCN(C(=O)c2cccc(S(=O)(=O)N3CCc4ccccc43)c2)CC1,-3
CCn1nnc2cc(C(=O)Nc3ccc(C(=O)OC(C)C)cc3)ccc21,94
C[C@@H]1COC(=O)[C@@H](Cc2ccc(F)cc2)C/C=C\C[C@@H](CC(=O)NCCO)C(=O)N1,-1
Nc1c(C(=O)CSc2ncccn2)c(=O)[nH]c(=O)n1C1CC1,-2
O=C(CN1C(=O)c2ccccc2S1(=O)=O)Nc1cccc(S(=O)(=O)N2CCOCC2)c1,-2
O=C(NCCCc1ccccc1)c1cccc(S(=O)(=O)N2CCOCC2)c1,-3
CC1CCN(C(=O)c2nc[nH]c2C(=O)N2CCC(C)CC2)CC1,2
CCCCn1c(N)c(N(CC(C)C)C(=O)C2CCN(S(=O)(=O)c3ccccc3)CC2)c(=O)[nH]c1=O,-2
COC(=O)c1ccccc1NC(=O)CNc1ccc(F)c(S(=O)(=O)N2CCOCC2)c1,-2
CC1(c2ccccc2)NC(=O)N(CC(=O)NCc2cccc(Cl)c2)C1=O (stereo not drawn),-5
Cc1c(C(=O)OCC(=O)NC(=O)NC2CCCCC2)cccc1[N+](=O)[O-],-3
COc1ccc(CN2Cc3cccc4c3[C@@H](CC2=O)[C@H](O)[C@H](O)C4)cc1,0
CC(Sc1ccc(S(=O)(=O)N2CCN(C)CC2)cn1)C(=O)NC1CCCCC1 (stereo not drawn),-8
Cc1ccc(S(=O)(=O)N2CCN(c3ncnc4scc(-c5ccccc5)c34)CC2)cc1,-10
CC(C)[C@H](NC(=O)c1ccccc1)C(=O)OCC(=O)NCc1ccc2c(c1)OCO2,-2
COc1cccc(/C=C/C(=O)NNC(=O)c2ccncc2)c1OC,-5
Cc1ccc(NC(=O)CSc2nnc(C3CC3)n2C)cc1S(=O)(=O)N1CCCCC1,-2
O=C(COC(=O)c1cc(=O)[nH]c2ccccc12)NC1CCCCC1,-1
CC(Sc1nnc(C2CC2)n1Cc1ccccc1)C(=O)N1CCNC1=O (stereo not drawn),-9
O=C(CC1CC2CCC1C2)N1CCN(S(=O)(=O)c2ccccc2F)CC1 (stereo not drawn),-7
CN(CC(=O)NC1CCN(Cc2ccccc2)CC1)S(=O)(=O)c1ccc(Cl)s1,2
Cc1ccc(C(=O)NCc2ccccc2CN2CCCC2)cc1S(=O)(=O)N1CCOCC1,-10
C[C@@H]1CN([C@@H](C)CO)C(=O)c2cccc(NS(C)(=O)=O)c2O[C@H]1CN(C)Cc1ccc(C(=O)O)cc1,0
CCCCN(C(C)=O)c1ccc(S(=O)(=O)NC2=NCCCCC2)cc1NC(C)=O,3
COC(=O)c1c(C)[nH]c(C(=O)OCC(=O)c2c(N)n(CC(C)C)c(=O)n(C)c2=O)c1C,5

# Single entries from the entries so far:
# For Mtb bLac sens, O=C(CN1C(=O)c2ccccc2S1(=O)=O)Nc1cccc(S(=O)(=O)N2CCOCC2)c1 is entered as -2
# For Mtb bLac sens, Cc1ccc(-n2nc(C)c(C(=O)Nc3cccc(C(=O)NC4CC4)c3)n2)c(C)c1 is entered as 30
# For Mtb bLac sens, Cc1[nH][nH]c(=O)c1C is entered as -6
# For Mtb bLac sens, Cc1ccc(NC(=O)CSc2nnc(C3CC3)n2C)cc1S(=O)(=O)N1CCCCC1 is entered as -2
# For Mtb bLac sens, Cc1c(C(=O)OCC(=O)NC(=O)NC2CCCCC2)cccc1[N+](=O)[O-] is entered as -3

# The main list resumes with the 3 entries that preceded the break.
SMILES,Mtb bLac sens
C[C@@H]1CN([C@@H](C)CO)C(=O)c2cccc(NS(C)(=O)=O)c2O[C@H]1CN(C)Cc1ccc(C(=O)O)cc1,0
CCCCN(C(C)=O)c1ccc(S(=O)(=O)NC2=NCCCCC2)cc1NC(C)=O,3
COC(=O)c1c(C)[nH]c(C(=O)OCC(=O)c2c(N)n(CC(C)C)c(=O)n(C)c2=O)c1C,5
CC(C)(C)OC(=O)NCCCCCNC(=O)c1nc[nH]c1C(=O)N1CCN(c2ccccc2)CC1,0
COc1ccc(CC(=O)NNC(=O)c2ccco2)cc1,-6
C=CCOc1ccc(/C=C/C(=O)OCC(=O)NCc2cccc(OC)c2)cc1,24
C[C@@H]1CN([C@H](C)CO)C(=O)c2cc(NS(=O)(=O)c3cn(C)cn3)ccc2O[C@@H]1CN(C)S(C)(=O)=O,-7
CC1CCN(C(=O)c2[nH]cnc2C(=O)NC2CCN(C(=O)OC(C)(C)C)CC2)CC1,9
O=C1NC(Cc2ccccc2)c2nc3ccc(F)cc3c(=O)n2-c2ccccc21 (stereo not drawn),5
COc1cc(OC)cc(C(=O)NNC(=O)CCC2CCCC2)c1,-4
O=C1N[C@@H](c2ccccc2)COC(=O)[C@@H](Cc2ccc(F)cc2)CC/C=C/C[C@@H]1CC(=O)N(CCO)Cc1ccccc1,4
O=C(O)C1CCN(S(=O)(=O)c2ccc(Cl)s2)CC1,-2
Cc1cc(NC(=O)COC(=O)C2CC(=O)N(c3ccc(Cl)cc3)C2)no1 (stereo not drawn),2
N#CC1(NC(=O)CSc2nnc(Cc3ccccc3)o2)CCCCC1,-6
CCc1cccc(N(CC(=O)NC2CCCCC2)C(=O)c2csnn2)c1,-21
CC1CN(C(=O)COc2ccc3ccccc3c2)CC(C)O1 (stereo not drawn),-7
Cc1ccc(C(=O)c2ccccc2C(=O)OCC(=O)N2CC(C)CC(C)C2)cc1 (stereo not drawn),-3
CN(C)Cc1c(O)ccc2c(=O)c(-c3ccc(Cl)cc3)coc12,1
O=C(CSc1nnc(-c2ccncc2)o1)Nc1cc(Cl)ccc1C(=O)O,-7
